V. cholerae motility: Vibrio cholerae motility inhibitors, OD read-out (AID 588778); one-dose inhibition, %; IC50 in µg/mL for titrated hits; 10,000 tested, under 10 active; Vibrio cholerae motility, OD read-out; higher % means a stronger effect; test concentration not given here; primary cut-off and reference of the scale not given here; strong numbers were not always called active; in the data active = confirmed in a dose series
V. cholerae motility viability: also measured in V. cholerae motility; calls as there; inhibition, %; measured here: bacterial viability at 10 ug/mL;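 higher means fewer living bacteria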
* = called active by the depositor. This is a subset; count on the stated rates, not on these rows.

Screens in order – V. cholerae motility, V. cholerae motility viability
Cc1cc(C)nc(SCCOc2ccc(Cl)c(C)c2)n1
→ 8%, 2
O=C(Cc1coc2ccc3ccccc3c12)NC1CCCCC1
→ 0%, 33
Nc1nnc(-c2ccc(Oc3nc(N4CCOCC4)nc(N4CCOCC4)n3)cc2)s1
→ -25%, -9
CC(NC(=O)C(=S)NC1CCCCC1)c1ccccc1 (centres undefined)
→ -9%, -11
CC(c1ccccc1)n1cnc2cc(N)ccc21 (centres undefined)
→ -1%, 7
Cc1cc(-c2cc(C(N)=O)c3cc(Cl)ccc3n2)c(C)s1
→ -30%, -8
CSc1ccccc1NC(=O)CSc1nccn1C
→ 2%, 36
COc1ccccc1C1C=C(c2ccccc2)Nc2nc3ccccc3n21 (centres undefined)
→ -18%, -3
COC(=O)Nc1nnc(-c2cccs2)s1
→ 99%, 88
CC(C)C(=O)Nc1cccc(C(=O)NCc2ccc(S(N)(=O)=O)cc2)c1
→ 14%, -5
COc1ccccc1Nc1nc(-c2c(C)nc3ccccn23)cs1
→ 3%, -2
N#Cc1ccccc1Sc1ccccc1C(=O)NC(Cc1ccccc1)C(N)=O (centres undefined)
→ 4%, 25
O=C(CSc1nnc2ccccn12)Nc1ccc(F)c(Cl)c1
→ -8%, -1
Cc1ccc([N+](=O)[O-])c(OCCN2CCc3ccccc3C2)c1
→ 28%, 6
COCCN1C(=O)/C(=C\c2ccccc2[N+](=O)[O-])C(C(=O)OC)=C1C
→ -5%, -4
Fc1c(F)c(F)c(Cn2ccc(NC(=S)NCc3ccco3)n2)c(F)c1F
→ 11%, -3
O=C(COc1ccccc1[N+](=O)[O-])Nc1cc2nn(-c3ccccc3)nc2cc1Cl
→ -12%, -6
NS(=O)(=O)c1ccc(CNC(=O)C(c2ccccc2)c2ccccc2)cc1
→ -14%, -4
Cn1c(SCc2ccc([N+](=O)[O-])cc2)nnc1-c1cccnc1
→ 4%, 1
CCOC(=O)c1c(C)oc(C)c1CNC(N)=O
→ -5%, -10
Clc1ccc(C2=CSC3=NCCCCN23)cc1Cl
→ 11%, 6
O=C(Nc1ccc(-c2nc3ccccc3[nH]2)cc1)c1cncc(Br)c1
→ -31%, -7
O=C(c1ccc(Br)o1)N1CCN(C/C=C/c2ccccc2)CC1
→ 0%, -5
O=C(NC1c2ccccc2-c2ccccc21)c1cccc([N+](=O)[O-])c1
→ 11%, 8
COc1cc(-n2nnnc2SCc2ccccc2F)c(OC)cc1Cl
→ -12%, -9
N#Cc1cc(-c2ccccc2)oc1NC(=O)c1ccco1
→ 16%, -7
C=CCNCCOCCOc1ccc(C)cc1[N+](=O)[O-]
→ 19%, 0
O=C(Nc1ccc(Oc2cccc3cccnc23)cc1)c1cccc([N+](=O)[O-])c1
→ 34%, 8
COc1ccc(S(=O)(=O)NCCSc2ccccc2)cc1Br
→ 49%, 20
COc1ccc(C(=O)CSc2nc(N)nc(SC)c2C#N)cc1
→ 0%, -1

A second format for 3 compounds above.
> N#Cc1cc(-c2ccccc2)oc1NC(=O)c1ccco1
  V. cholerae motility = 16%	V. cholerae motility viability = -7

> Cc1ccc([N+](=O)[O-])c(OCCN2CCc3ccccc3C2)c1
  V. cholerae motility = 28%	V. cholerae motility viability = 6

> CC(C)C(=O)Nc1cccc(C(=O)NCc2ccc(S(N)(=O)=O)cc2)c1
  V. cholerae motility = 14%	V. cholerae motility viability = -5

Later entries
Screens in order – V. cholerae motility, V. cholerae motility viability
Cc1nc2ccccc2n1C(=O)CCCCC(=O)n1c(C)nc2ccccc21
→ -2%, -2
CCOC(=O)c1c(C)n(C)c2ccc(OCc3nnnn3-c3ccccc3)cc12
→ 14%, 6
Cc1ccc(C(=O)NC(=S)Nc2ccccc2Cl)cc1S(=O)(=O)N1CCOCC1
→ -3%, -5
Cc1nnc2sc(-c3ccc(NC(=O)c4sc5ccccc5c4Cl)cc3)nn12
→ 0%, -9
COC(=O)c1c(NC(=S)Nc2ccn(C34CC5CC(CC(C5)C3)C4)n2)sc2c1CCC2
→ -3%, -12
COC(=O)C(NC(=O)c1cccc([N+](=O)[O-])c1)C(C)C (centres undefined)
→ 2%, 31
COc1ccc(-n2c(=S)[nH]c3nc4c(cc3c2=O)COC(C)(C)C4)cc1
→ 3%, -6
Cc1occc1C(=O)Nc1nc(-c2ccc(Cl)cc2Cl)cs1
→ -12%, -7
CCOc1ccccc1N1CCN(C(=O)c2cc(OCC)c(OCC)c(OCC)c2)CC1
→ 4%, -4
COc1cccc2c(=O)c(CC=C(Cl)Cl)c(C)[nH]c12
→ 32%, 5
O=C1NC(=O)c2cc(S(=O)(=O)Nc3ccc(I)cc3)cc3cccc1c23
→ 13%, 2
O=C(N1CCOCC1)C1(c2ccc(Cl)cc2)CCCC1
→ 1%, 2
CCOc1ccc2ccccc2c1C(=O)NCc1cccs1
→ 18%, 3
COc1ccc(NC(=O)CSCC(=O)Nc2ccc(C(C)C)cc2)cc1Cl
→ 4%, -1
Cc1ccc(-c2nc3ccccc3n3nnnc23)cc1
→ -16%, -7
CCOc1ccc(S(=O)(=O)Nc2ccccc2C(=O)NN2CCN(C)CC2)cc1
→ 4%, -7
O=S(=O)(NN1CCOCC1)c1ccc(Cl)cc1
→ -7%, -2
Cc1cc(C)n(-c2nc(N3CCC(C)CC3)nc(C)c2[N+](=O)[O-])n1
→ 2%, 2
CSc1cccc(NC(=O)c2ccc(CN3CCOCC3)cc2)c1
→ 3%, 2
CCc1nnc(N2CCN(c3ncnc4c3oc3ccccc34)CC2)s1
→ 14%, 4
CCOC(=O)C1=CC2(SC=C(C(=O)OCC)S2)C2=C(S1)C(C)(C)Nc1ccc(C)cc12 (centres undefined)
→ 0%, -3
CCC1(c2ccc(-c3ccccc3)cc2)C(=O)NC(=O)NC1=O
→ -4%, -3
CC1(C)CCN2CCC(C)(C)c3c(O)ccc1c32
→ -1%, 5
Fc1ccc(CSc2nc3ccccc3[nH]2)c(Cl)c1
→ 13%, -5
C=CCSc1nnc(NC(=O)CSc2nc3ccccc3o2)s1
→ 21%, 2
NC(=O)CSCc1ccccc1Cl
→ -5%, -1
CCOc1ccccc1N1CC(C(=O)Nc2nccs2)CC1=O (centres undefined)
→ 0%, -3
Cn1c(SCc2nc3ccccc3[nH]2)nnc1-c1ccccn1
→ 1%, 4
Cc1ccnc(SCC(=O)c2cccc([N+](=O)[O-])c2)n1
→ 16%, 2
Cc1cc(=O)[nH]c(Sc2c(-c3ccccc3)c3cc([N+](=O)[O-])ccc3[nH]c2=O)n1
→ -7%, -6
Cc1nnc(SCC(=O)NC2CCCCC2)[nH]c1=O
→ 19%, 14
CNC(=S)Nc1ccc2c(c1)OCO2
→ -9%, -1
O=C(Nc1ncccn1)c1cc2c(s1)CCCCCC2
→ 7%, -1
O=C(CSc1nc(-c2ccccc2)cc(=O)[nH]1)NCc1cccs1
→ 15%, -1
CC(C)c1ccccc1NC(=O)COc1ccc(/C=C(\C#N)c2nc3ccccc3[nH]2)cc1
→ -11%, -6
CCc1cc(=O)oc2cc(C)cc(OC(C(=O)OC)c3ccccc3)c12 (centres undefined)
→ -1%, -2
O=C(CSc1nnnn1-c1ccccc1)N1N=CCC1c1ccccc1 (centres undefined)
→ -3%, 2
O=C(O)c1cc(N2C(=O)CCC2=O)ccc1Cl
→ -4%, 1
O=C(O)c1ccc(NS(=O)(=O)c2ccc(F)c(Cl)c2)cc1
→ 11%, -3
NC(=O)C1(N2CCCCC2)CCN(C(=O)CSc2nc3ccccc3o2)CC1
→ 4%, -1
CCOc1ccccc1N1CCN(S(=O)(=O)c2cc(Cl)c(C)cc2OC)CC1
→ -25%, -16
C=CCN(CC=C)C(=O)c1ccccc1SCC
→ -3%, -6
COc1cc2c(cc1NC(=O)c1csc(C)c1)oc1ccccc12
→ 1%, 1
O=c1ccnc2c1ccc1[nH]snc12
→ -5%, 6
CCCc1ccc(OCCNC(=O)c2ccccc2C(F)(F)F)cc1
→ 9%, 4
COc1cc(CNc2ncn[nH]2)ccc1OCC(=O)NC1CCCCC1
→ -4%, -8
CCC(=O)Nc1cc(C(C)C)c(O)cc1C
→ 3%, -1
CCOc1ccc(-c2cc(OCC)c3c(C)oc(C)c3c(=[O+]CC)c2)cc1
→ -3%, -2
O=C1CSC2=NC3=C(CCc4ccccc43)C(c3ccccc3F)N12 (centres undefined)
→ 4%, -4
COc1ccc(Cc2noc(-c3ccc(Br)cc3)n2)cc1OC
→ 6%, -2
Cc1cc2nc3sc4nc5ccccc5nc4n3c2cc1C
→ -4%, -1
Nc1cc(CN2C(=O)c3ccccc3C2=O)cc(Cl)c1O
→ -14%, -6
COc1ccccc1C(=O)NNS(=O)(=O)c1ccc(C)cc1
→ -1%, -4
CC(=O)c1cccc(NC(=O)C(Cl)Cl)c1
→ 5%, 2
CCOCCC(=O)N1CCN(C)CC1
→ -4%, -3
Cc1c(Cl)cccc1-c1ccc(C(=O)N2CCN(c3ccc(C(F)(F)F)cc3[N+](=O)[O-])CC2)o1
→ -18%, -9
COc1cc(Br)c(CNC(C)(C)CO)cc1OC
→ 10%, 8
Cc1ccc(C)n1NC(=O)c1cccs1
→ -2%, 8
O=c1cc(-c2cccc([N+](=O)[O-])c2)[nH][nH]1
→ -21%, 1
O=C(CNS(=O)(=O)c1cccc(C(F)(F)F)c1)N1CCC(Cc2ccccc2)CC1
→ -4%, -3

(more compounds)
Screens in order – V. cholerae motility, V. cholerae motility viability
Cc1cc(C(=O)N2CCN(S(C)(=O)=O)CC2)sc1-c1ccccc1
→ 17%, 25
C=CCC(CC=C)(C(=O)O)c1ccccc1
→ 37%, 18
Cc1cc(C)n(C(=O)CN2C(=O)C3CCCCC3C2=O)n1 (centres undefined)
→ 10%, 2
O=C(Nc1ccc(Cl)cc1[N+](=O)[O-])c1cccc2ccccc12
→ 1%, -1
CCCCOc1ccccc1NC(=O)C(F)(F)F
→ -17%, -10
S=c1nc2c(n[nH]1)-c1cccc3cccc-2c13
→ 28%, 9
O=C(CC1NC(=O)NC1=O)Nc1ccc(C(=O)O)cc1 (centres undefined)
→ 1%, 12
CN1CCN(NC(=O)c2cccc(COc3ccccc3Cl)c2)CC1
→ 4%, -1
CC(=O)Nc1ccc(-c2nnc(SCC(=O)c3ccc4c(c3)Cc3ccccc3-4)n2C)cc1
→ 7%, 0
O=C(CSc1n[nH]c(=O)[nH]c1=O)N/N=C/c1cccs1
→ -1%, -1
O=C(CSc1nc2ccccc2[nH]1)Nc1ccc(Br)cc1F
→ -5%, -7
NS(=O)(=O)c1ccc(NC(=S)N2CCN(C(=O)c3ccco3)CC2)cc1
→ 8%, 20
O=C(O)c1ccc(CNCc2ccccc2F)cc1
→ -3%, -1
O=C(COc1ccc(Cl)cc1Cl)NC(=O)N1CCOCC1
→ -19%, 4
O=S1(=O)CC(O)C(Nc2ccccc2Cl)C1 (centres undefined)
→ -27%, -15
COc1ccc(CCNC(=S)Nc2ccn(C34CC5CC(CC(C5)C3)C4)n2)cc1OC
→ 0%, -1
CC1Cc2ccccc2N1C(=O)c1nc2ccccc2s1 (centres undefined)
→ 15%, 33
CC(C)OCCCNC(=O)C1CN(S(=O)(=O)c2ccccc2)CCN1S(=O)(=O)c1ccccc1 (centres undefined)
→ 8%, 1
CN1C(=O)C2C=CC1C1C(=O)N(Cc3ccccc3)C(=O)C21 (centres undefined)
→ -16%, -3
CCCCOc1ccc(NCN2C(=O)c3ccccc3C2=O)cc1
→ 5%, 7
Cc1nc2nc(-c3ccco3)nn2c(C)c1Cl
→ 16%, 8
COc1ccc(N/C(=N\c2nc(CSc3nc4ccccc4s3)cc(=O)[nH]2)NC(=O)c2ccccc2)cc1
→ -7%, -1
Cn1cccc1/C=N/N1CCN(Cc2cccc3ccccc23)CC1
→ 4%, -4
CCOC(=O)Cn1cc(Br)c(=O)[nH]c1=O
→ -1%, 0
CC(=O)OCC(=O)c1ccc(Br)cc1
→ 5%, -1
Cn1cccc1CN1CCN(C(=O)c2cccc(F)c2)CC1
→ 4%, 0
Clc1ccc(Cn2cc(Br)cn2)cc1Cl
→ 42%, 5
O=C(c1ccccc1)C(Sc1ncccn1)c1ccccc1 (centres undefined)
→ 5%, -3
O=C(CCN1C(=O)c2ccccc2S1(=O)=O)Nc1nc2c(s1)CCCC2
→ -3%, -2
O=C(CN(c1ccc(I)cc1)S(=O)(=O)c1ccccc1)Nc1cccnc1
→ 19%, 7

6 compounds picked at random from those above, as already listed:
Screens in order – V. cholerae motility, V. cholerae motility viability
Cn1cccc1CN1CCN(C(=O)c2cccc(F)c2)CC1
→ 4%, 0
O=S1(=O)CC(O)C(Nc2ccccc2Cl)C1 (centres undefined)
→ -27%, -15
S=c1nc2c(n[nH]1)-c1cccc3cccc-2c13
→ 28%, 9
CCCCOc1ccccc1NC(=O)C(F)(F)F
→ -17%, -10
O=C(CC1NC(=O)NC1=O)Nc1ccc(C(=O)O)cc1 (centres undefined)
→ 1%, 12
COc1ccc(CCNC(=S)Nc2ccn(C34CC5CC(CC(C5)C3)C4)n2)cc1OC
→ 0%, -1

New compounds follow.
Screens in order – V. cholerae motility, V. cholerae motility viability
O=C(/C=C/c1ccccc1)NC(=S)Nc1cccc2ccccc12
→ 6%, -7
Fc1ccccc1NC(=S)Nc1ccc2nccnc2c1
→ 9%, -3
O=c1c2ccccc2[nH]c(=S)n1Nc1ccccc1
→ -4%, -1
O=C(NCCc1ccc(F)cc1)c1cc(Cl)ccc1Cl
→ 18%, -2
COc1ccc2c(=O)c(-c3ccccc3Cl)c(C(F)(F)F)oc2c1OC
→ -10%, -8
Cc1cccc(Nc2nc(N)nc(CN3CCN(c4cccc(Cl)c4)CC3)n2)c1
→ 13%, 4
Nc1ncnc(Nc2cc(C(F)(F)F)ccc2Cl)c1[N+](=O)[O-]
→ -8%, 3
CCOc1ccccc1OCCCOc1ccc(Cl)cc1Br
→ -6%, -4
Cc1cc(-c2ccccc2)nc(SCC(=O)NC2CC3CCC2C3)n1 (centres undefined)
→ 11%, 1
O=C(Nc1ccc(Cl)cn1)c1ccc(COCC(F)(F)C(F)F)o1
→ 15%, -1
COc1cc2nc(C)sc2cc1SC
→ 4%, -2
COC(=O)c1c(NC(=O)c2cccc(Cn3nc(C)c(Cl)c3C)c2)sc2c1CCC2
→ 7%, -2
O=S(=O)(Nc1ncccn1)c1ccc(NC(=S)NCc2cn(-c3ccccc3)nc2-c2ccccc2)cc1
→ -10%, -6
OCc1ccc(OCc2ccc(I)cc2)cc1
→ 11%, 9
O=C(CSc1nc2ccccc2n1Cc1ccccc1)c1cc2ccccc2oc1=O
→ 2%, 1
